GIV-Gai inh: inhibitors of GIV peptide binding to Galpha-i3, primary screen, biochemical, fluorescence polarization, FITC-GIV GBA peptide, rat Galphai3; 90 min; stronger effect = lower value; scaled: aluminum fluoride 0%, vehicle 100%; percent of control (FP), % (test concentration not listed); 210,000 compounds, 0.42% hits; AID 1224905, 2016;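 active means replicate mean at 85% of control or lower, very high polarization wells dropped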;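 further: wells of about 15 µL received 100 nL stock; the first replicate is given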
Target sequence (P08753 whole entry, looked up): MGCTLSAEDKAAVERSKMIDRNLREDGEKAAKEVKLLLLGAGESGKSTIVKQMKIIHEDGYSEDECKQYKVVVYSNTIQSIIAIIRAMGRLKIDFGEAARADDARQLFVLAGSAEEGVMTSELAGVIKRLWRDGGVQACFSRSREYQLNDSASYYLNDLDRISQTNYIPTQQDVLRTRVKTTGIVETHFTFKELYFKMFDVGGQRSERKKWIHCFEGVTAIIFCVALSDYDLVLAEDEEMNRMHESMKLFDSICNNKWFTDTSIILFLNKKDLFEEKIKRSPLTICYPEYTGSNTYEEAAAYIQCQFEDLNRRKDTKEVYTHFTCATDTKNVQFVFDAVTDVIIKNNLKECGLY
HCMV NEC inh: inhibitors of HCMV UL50-UL53 interaction, biochemical, HTRF; HCMV UL50-UL53 nuclear egress complex (human cytomegalovirus); 190,000 compounds, 0.15% hits; inhibition, % (concentration not given with the values); normalized percent inhibition;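 active means both replicates at 50% or more, plus weaker picks with an unusually low signal ratio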;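 further: stock transfer was 100 nL into about 20 µL; 0% = negative control wells and 100% = wells with untagged competitor protein; inactives centre near -12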
Sa growth 42C: S. aureus growth inhibition at 42 and 30 °C, primary screen, LtaS inhibitor project, RN4220, two temperatures; OD600, 20 h, 42 °C; stronger effect = lower value; relative growth, % (concentration not given with the values); 170,000 compounds, 0.53% hits;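 active means growth at 42 °C up to 50% and 20 or more points under that at 30 °C, or under 10% at both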;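 further: 300 nL library stock went into each well; scaled to the means of positive and negative controls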
Sa growth 42C second temp: also measured in Sa growth 42C; calls as there; relative growth, %; measured here: growth at 30 °C;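 optical density after 20 h as mean of two plates; 100% = untreated growth and lower means inhibition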
* = called active by the depositor; . = no result given; & = joins results of further samples. Rows were taken by chance. About 0.83% of those tested had a hit in this group.

SMILES	GIV-Gai inh	HCMV NEC inh	Sa growth 42C	Sa growth 42C second temp
Cc1noc2ncnc(N3CCCC(C(=O)NCCCN4CCCC4=O)C3)c12 (stereo unspecified)	105	-15	96	88
O=C(c1cc(-c2cccnc2)on1)N1CC=C(c2ccccc2)CC1	103	-4	.	.
O=C(NC(Cc1ccccc1)C(=O)OCc1ccccc1)c1cccs1 (stereo unspecified)	.	-13	122	92
O=c1c2c(nc3[nH]ncn13)CCN(Cc1ccccc1)C2	102	.	101	85
CCOc1ccccc1OCC(=O)OC1CCOC1=O (stereo unspecified)	.	-6	94	98
CCOC(=O)c1c(-c2ccc(C)cc2)csc1NC(=O)c1cc(=O)c2cc(C)c(C)cc2o1	101	2	105	90
COC(=O)CNC(=O)c1cc(=O)c2ccccc2o1	.	-53	87	88
C=C(C)c1cccc(C(C)(C)NC(=O)NCc2cccnc2)c1	104	13	93	89
O=C(CSc1ncnc2ccccc12)Nc1cccc(F)c1	105	.	116	99
CCOC(=O)c1c(-c2ccccc2)n2c3c(cccc13)SCC2	112&104	0	106	100
Cc1ccc(C)c(N2CCN(C(=O)Cn3cnc4onc(-c5ccc(F)cc5)c4c3=O)CC2)c1	99	.	113	96
O=C(CSCc1cnn(-c2ccccc2)c1-n1cccc1)N1CCC(N2CCCCC2)CC1	103	.	102	86
Cc1noc2c1C(c1cccc(Cl)c1)C1=C(CC(C)(C)CC1=O)N2 (stereo unspecified)	105	-19	.	.
Cc1cc(C)cc(NCc2nnc3n2CCCCC3)c1	101	.	89	89
Cc1cc(NC(=O)CSc2ncc(C(=O)Nc3ccc(F)cc3)c(=O)n2C)no1	102	.	127	90
O=C(CCCn1c(=O)c2ccccc2n(CC(=O)c2ccccc2)c1=O)NC1CCCC1	103	2	93	90
CCN(C(=O)CN(C)C1CCCCC1)c1c(N)n(Cc2ccccc2)c(=O)[nH]c1=O	.	-3	116	91
CCCC(=O)NCc1cc(-c2nn(C)c(=O)c3ccccc23)ccc1C	110	0	100	86
COCCCNC(=O)c1cnc2sc(N3CCCCCC3)nn2c1=O	95	.	92	91
COc1ccc(/C=C/c2nn3c(COc4ccc(OC)cc4)nnc3s2)cc1	106	-1	.	.

Retrieved one by one from above:
SMILES	GIV-Gai inh	HCMV NEC inh	Sa growth 42C	Sa growth 42C second temp
C=C(C)c1cccc(C(C)(C)NC(=O)NCc2cccnc2)c1	104	13	93	89
O=C(CSc1ncnc2ccccc12)Nc1cccc(F)c1	105	.	116	99
O=c1c2c(nc3[nH]ncn13)CCN(Cc1ccccc1)C2	102	.	101	85

(more compounds)
SMILES	GIV-Gai inh	HCMV NEC inh	Sa growth 42C	Sa growth 42C second temp
O=C(CN1C(=O)c2ccccc2C1=O)Nc1ccc2c(c1)C(=O)Nc1cc(Cl)ccc1O2	114	-31	.	.
O=C(Cn1cnc2sc3c(c2c1=O)CCCC3)NCC(=O)N1CCN(c2ccccn2)CC1	103	-25	.	.
Cc1ccc2c(c1)c1c(c(=O)n(-c3ccccc3)c(=O)n1CC(=O)NCCC1=CCCCC1)n2C	107	.	120	89
COc1ccc(OC)c(CNS(=O)(=O)c2ccc(-c3cc(C(F)(F)F)on3)s2)c1	104	.	106	78
COC(=O)C1(C(F)(F)F)C2C=CC(C2)N1S(=O)(=O)c1ccccc1 (stereo unspecified)	112	-3	97	102
O=C(NCc1cccn1Cc1ccccc1)Nc1ccccc1	103	-18	116	92
O=C(Nc1cccc(C(F)(F)F)c1)c1cc2ccccc2o1	105	-18	93	89
CC(C)(C)c1cc(C(C)(C)C)n(-c2cnc3ccccc3n2)n1	109	1	112	97
C=CCN1C(c2ccc(C)cc2)=CS/C1=C(\C#N)C(=O)OCC	103	-33	93	81
COc1ccc(CN2C(=O)C3CCCCC3C2=O)cc1S(=O)(=O)N1CCc2ccccc21 (stereo unspecified)	99	-4	.	.
COc1ccc(-c2nnc(SC(C(=O)NC(N)=O)c3ccccc3)n2CC2CCCO2)cc1 (stereo unspecified)	.	-16	81	80
O=C(Cn1cc(C(F)(F)F)ccc1=O)N1CCN(S(=O)(=O)c2ccc(Cl)cc2)CC1	.	-12	103	99
CCC(=O)Nc1sc2c(c1C(=O)Nc1ccc(OC)cc1)CCC(C(C)(C)C)C2 (stereo unspecified)	102	-8	92	88
CC(=O)Oc1ccc2oc(=O)sc2c1	104	-24	78	61
CCCCOc1ccc(C(=O)N(Cc2ccccc2)C2CCS(=O)(=O)C2)cc1 (stereo unspecified)	94&100	-16	115	85
Cc1cccc(C(=O)Nc2ccccc2C(=O)OCc2cc(=O)n3nc(C4CC4)sc3n2)c1	99	.	93	93
COc1cccc(C(=O)Nc2cccc(C)c2)c1	105	-19	106	104
CCN1CCN(C(=O)CNC(=O)N2CCSc3nc(C)cc(C)c32)CC1	104	-6	.	.
O=C(Cn1ccn2nc(-c3ccc4c(c3)OCO4)cc2c1=O)NCc1ccc2c(c1)OCO2	102	-18	.	.
O=C(Nc1ccccc1)N1CCC(n2c(=O)[nH]c3ccccc32)CC1	103	.	89	78
CCOc1ccc(-c2nnc3ccc(SCC(N)=O)nn23)cc1	102	-68	88	90
CCOc1ccc(CNC(=O)Cn2nc(C)c3nn(-c4ccc(Cl)cc4)c(C)c3c2=O)cc1OC	101	.	84	82
COc1cccc(CSc2nc3n(n2)C(c2cccc(F)c2)C(C(=O)Nc2ccccc2C)=C(C)N3)c1 (stereo unspecified)	100	.	143	82
O=C(CN1C(=O)CSc2cc(S(=O)(=O)N3CCCC3)ccc21)NC1CCCCCC1	105	.	118	89
CCOC(=O)CSc1nnc(-c2cc(OC)c(OC)c(OC)c2)o1	100	-6	90	81
CCOC(=O)C1=C(CSc2nnc(C)s2)NC(=O)NC1c1ccccc1OC (stereo unspecified)	102	.	89	89
O=C(COc1ccccc1OC(=O)c1ccc(Cl)cc1)NCc1ccccc1Cl	99	13	124	105
O=C(COC(=O)c1cc(-c2ccccc2)nc2ccccc12)c1ccc(Br)cc1	105	-23	88	86
CC(NC(=O)Cn1ncc2ccsc2c1=O)C12CC3CC(CC(C3)C1)C2 (stereo unspecified)	109	.	103	85
Cc1nc(CCn2cnc3cc(C)c(C)cc32)no1	101	8	103	90
O=C1CC(c2cccc(O)c2)C2=C(CC(c3cccs3)CC2=O)N1 (stereo unspecified)	104	-7	102	91
CCN(CC)S(=O)(=O)c1ccc(-c2csc(=Nc3cccc(C(F)(F)F)c3)n2Cc2ccc3c(c2)OCO3)cc1	102	21	103	101
CCOC(=O)C1CCN(c2ccc(C(=O)N3CCc4ccccc43)nn2)CC1	100	-19	.	.
Cc1ccc(C2CC(c3cccs3)=NN2C(=O)CSc2nnc(CNC(=O)c3ccco3)n2-c2ccccc2)cc1 (stereo unspecified)	105	-35	111	82
Cc1ccccc1NC(=O)c1ccc2c(O)c(S(=O)(=O)c3ccccc3)c(=O)[nH]c2c1	99	.	105	89
COc1ccc(OC)c(C2C(C(=O)Nc3nc4ccccc4s3)=C(C)NC3=C2C(=O)CCC3)c1 (stereo unspecified)	104	5	.	.
NC(=O)C1CCN(C(=O)c2cccc3ccccc23)CC1	.	-14	101	94
COc1ccc(-c2nc3nc(C)cc(NC(C)C)n3n2)cc1	105	-18	.	.
CCOCCOC(=O)COc1ccc2c(=O)c(-c3ccc(Cl)cc3)c(C(F)(F)F)oc2c1	97	-3	.	.
Cc1nc(N2CCCCC2)cc(N2CCN(C(=O)Nc3ccc4c(c3)OCCO4)CC2)n1	102	-17	.	.

One compound at a time (already shown). Order of screens: GIV-Gai inh, HCMV NEC inh, Sa growth 42C, Sa growth 42C second temp
CCOc1ccc(CNC(=O)Cn2nc(C)c3nn(-c4ccc(Cl)cc4)c(C)c3c2=O)cc1OC reads 101, ., 84, 82
NC(=O)C1CCN(C(=O)c2cccc3ccccc23)CC1 reads ., -14, 101, 94

For reference, 7 of the compounds above.
SMILES	GIV-Gai inh	HCMV NEC inh	Sa growth 42C	Sa growth 42C second temp
Cc1nc(CCn2cnc3cc(C)c(C)cc32)no1	101	8	103	90
O=C1CC(c2cccc(O)c2)C2=C(CC(c3cccs3)CC2=O)N1 (stereo unspecified)	104	-7	102	91
CCN(CC)S(=O)(=O)c1ccc(-c2csc(=Nc3cccc(C(F)(F)F)c3)n2Cc2ccc3c(c2)OCO3)cc1	102	21	103	101
CCOC(=O)C1CCN(c2ccc(C(=O)N3CCc4ccccc43)nn2)CC1	100	-19	.	.
Cc1ccc(C2CC(c3cccs3)=NN2C(=O)CSc2nnc(CNC(=O)c3ccco3)n2-c2ccccc2)cc1 (stereo unspecified)	105	-35	111	82
Cc1ccccc1NC(=O)c1ccc2c(O)c(S(=O)(=O)c3ccccc3)c(=O)[nH]c2c1	99	.	105	89
COc1ccc(OC)c(C2C(C(=O)Nc3nc4ccccc4s3)=C(C)NC3=C2C(=O)CCC3)c1 (stereo unspecified)	104	5	.	.

(continued)
SMILES	GIV-Gai inh	HCMV NEC inh	Sa growth 42C	Sa growth 42C second temp
O=C(Nc1ccccc1Cl)N1CCC(CN2CCCC2)CC1	104	.	120	85
Cc1ccc(-c2nnc(Nc3ccc(C(N)=O)cc3)c3ccccc23)cc1S(=O)(=O)N1CCCCC1	106	11	101	102
CCCC(O)c1nc2ccccc2n1CCCOc1cccc(C)c1C (stereo unspecified)	105	-24	.	.
Cc1nc2c(C(=O)N3CCC4(CC3)OCCO4)c[nH]n2c(=O)c1Cc1ccccc1Cl	99	.	80	76
CC(=O)c1cccc(NS(=O)(=O)c2cccc(S(=O)(=O)c3ccc(Br)cc3)c2)c1	109	-24	103	85
CCn1c(C)c(C2N3CC4(C)CN2CC(CC)(C3)C4=O)c2ccccc21 (stereo unspecified)	103	6	97	84
O=C(NC1CCCC1)C1COc2ccccc2O1 (stereo unspecified)	105&103	-24	84	84
CCC(=O)Nc1c(CC)cccc1CC	99	3	97	104
CCCCc1c(C)nc(C2CC2)[nH]c1=O	98	-10	107	86
Nc1nnc2ccccc2n1	106	-142	83	75
COc1ccc(C2C(C#N)=C(N)Oc3n[nH]c(-c4ccc5c(c4)OCO5)c32)cc1OC (stereo unspecified)	102	-56	.	.
C=CCn1c(=O)c(C(=O)Nc2ccccc2)c(O)c2ccccc21	104	1	93	92
C/C(=N\NC(=O)c1ccc(CSc2nc3ccccc3[nH]2)cc1)c1ccco1	.	-45	95	94
Cc1nc2sccn2c1Br	101	-22	87	85
O=C(NCCSCc1ccc(Cl)cc1)C1CCN(S(=O)(=O)Cc2ccccc2)CC1	104	-29	106	85
COc1ccccc1NC(=O)C1=C(C)Nc2nc(SCc3ccccc3F)nn2C1c1cccs1 (stereo unspecified)	106	-3	101	94
CCOc1ccc(-c2cnc(SCC)nc2N)cc1	102	20	93	96
Cc1cc(=O)n2c3c(sc2n1)C(=O)N(Cc1ccccc1)C3=O	.	-36	84	80
O=C(CN1C(=O)C2CCc3[nH]c4ccccc4c3C2C1=O)N1CCCC1 (stereo unspecified)	98	-23	80	93
CC(Sc1ncnc2nc[nH]c12)c1ccccc1Cl (stereo unspecified)	.	-3	82	49
COC(=O)C1CN(C)CCC1=O (stereo unspecified)	.	-4	99	88
Cc1nc2c(cc1C(=O)NN)c(=O)n(C)c(=O)n2C	.	-2	81	88
O=C(C1CCCN(S(=O)(=O)c2cccc3nonc23)C1)N1CCN(c2ccccc2F)CC1 (stereo unspecified)	105	-20	114	93
CC(C)(C)c1ccc(C(=O)Nc2n[nH]c(C(F)(F)F)n2)cc1	.	17	105	99
COc1ccccc1OCCNC(=O)c1ccc(S(=O)(=O)N(C)C)cc1	.	-13	81	88
COc1ccc(S(=O)(=O)N2CCC(NC(=O)NC3CCCC3)CC2)cc1	101	-6	95	93
Oc1nc2c(Cl)c(Cl)c(Cl)cc2o1	106	-10	-1.2*	-0.7*
C=CCn1c(Cc2ccccc2)nc2c(cnn2-c2ccccc2)c1=O	106	0	100	101
Cn1nc(C(=O)N2CCCC2c2ccc(F)cc2)cc1C(F)(F)F (stereo unspecified)	103	-25	.	.
Cc1ccc(CCNC(=O)C2CCN(Cc3nc(-c4ccccc4C)oc3C)CC2)cc1	113	-13	86	90
Cn1nc(SCC(=O)N2c3ccccc3CCc3ccccc32)sc1=S	96	.	125	88
Clc1ccc2nc(CN3CCCCC3)cn2c1	.	-24	104	79
Cc1[nH]c(=O)[nH]c(=O)c1S(=O)(=O)N1CCOc2ccccc2C1	104	-24	107	98
Cc1[nH]n(-c2ccccc2)c(=O)c1CCC#N	.	2	96	89
O=c1c(N2CCN(c3cccc(C(F)(F)F)c3)CC2)csc2ccc(Cl)cc12	107	.	88	86
CCOC(=O)N1CCC(C(=O)O)CC1	103	-17	92	90
O=C(c1cnn(C(=O)C2COc3ccccc3O2)c1)c1ccccc1O (stereo unspecified)	.	23	78	87
CCOC(=O)C(CC)Sc1nc2c(c(=O)[nH]c(=O)n2C)n1C (stereo unspecified)	102	0	.	.
CCC(C)NC(=O)c1cccc2c1SCCC2=O (stereo unspecified)	100	.	84	82
CC(=O)N1CCc2cc(C(O)CN(Cc3ccccc3)Cc3ccccc3)ccc21 (stereo unspecified)	104	-3	83	24
CCCCN(CC)C(=O)c1sc2ncnc(N3CCN(c4ccc(OC)cc4)CC3)c2c1C	100	.	92	55
Cc1ccccc1S(=O)(=O)Cc1ccc(C(=O)NCCCN2CCCC(C)C2)o1 (stereo unspecified)	108	1	89	90
O=C(O)/C=C\C(=O)NCc1ccc2c(c1)OCO2	100	-16	99	87
FC(F)(F)c1cc(-c2cccnc2)nc2cc(C3CC3)nn12	107	-56	96	90
CC(=O)Oc1cn(C(C)=O)c2ccccc12	94	2	49	45
